# KCNQ2 block – KCNQ2 channel blockers in CHO-K1 cells – cell-based, FluxOR thallium flux, B-score, primary screen (AID 2156). O88943. hit rate 1.1% among 310,000. 20 min; hits give low values; only compounds with negative scores are shown here; some inactives read as strong as hits. B-score at 10 µM;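 active = fluorescence ratio B-score at most minus 3 library SDs, with starting brightness B-score within 2 library SDs, cut at about -5.5 in these data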
# Target sequence (O88943 whole entry, looked up): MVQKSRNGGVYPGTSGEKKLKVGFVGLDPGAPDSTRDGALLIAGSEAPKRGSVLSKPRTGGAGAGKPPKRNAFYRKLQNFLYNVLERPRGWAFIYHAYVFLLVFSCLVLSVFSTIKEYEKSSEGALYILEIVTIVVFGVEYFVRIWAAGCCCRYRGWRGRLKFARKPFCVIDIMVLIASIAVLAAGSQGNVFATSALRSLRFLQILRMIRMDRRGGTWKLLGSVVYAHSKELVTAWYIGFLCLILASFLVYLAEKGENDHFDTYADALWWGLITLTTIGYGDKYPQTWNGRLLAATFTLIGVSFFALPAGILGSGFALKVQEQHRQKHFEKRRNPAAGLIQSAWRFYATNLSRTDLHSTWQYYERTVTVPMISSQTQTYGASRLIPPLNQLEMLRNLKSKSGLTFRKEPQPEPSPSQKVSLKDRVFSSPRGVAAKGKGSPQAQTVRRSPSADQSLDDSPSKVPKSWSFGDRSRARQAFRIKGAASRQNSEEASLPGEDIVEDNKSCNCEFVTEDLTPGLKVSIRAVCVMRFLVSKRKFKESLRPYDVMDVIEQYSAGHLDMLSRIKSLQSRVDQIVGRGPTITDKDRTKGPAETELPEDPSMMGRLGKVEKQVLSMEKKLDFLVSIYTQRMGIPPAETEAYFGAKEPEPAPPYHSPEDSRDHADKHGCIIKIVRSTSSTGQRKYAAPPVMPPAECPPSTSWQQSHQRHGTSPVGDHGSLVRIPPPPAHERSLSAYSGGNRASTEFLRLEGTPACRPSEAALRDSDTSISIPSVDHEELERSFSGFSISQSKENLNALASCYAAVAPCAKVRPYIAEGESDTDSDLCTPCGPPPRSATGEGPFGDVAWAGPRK
# KCNQ2 block baseline – second read-out of KCNQ2 block, no call of its own (marks repeat the call); B-score; measured here: initial fluorescence intensity artifact check;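 brightness before thallium and not channel activity; 0 = typical well and far values either way flag optical interference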
# * = called active by the depositor; i = inactive. Some of the compounds tested (hit frequency here may not be typical).
# Order of results – KCNQ2 block	KCNQ2 block baseline
CC(C)(C)c1ccc(C(=O)Nc2cccc3c(=O)[nH][nH]c(=O)c23)cc1
    i	1.5
O=C(Nc1ccccc1N1CCCC1)c1ccc([N+](=O)[O-])o1
    i	0.08
COCCn1nnnc1CN(Cc1cc2cc(OC)c(OC)cc2[nH]c1=O)C1CCCC1
    i	0.01
Cc1cccc(CC(=O)Nc2cc(=O)n(C)c(=O)n2C)c1
    i	-0.92
C[n+]1ccc(/C=C/c2ccc(Br)cc2)cc1
    i	4.8
COc1ccc2cc(C(=O)C3CCCN(Cc4cnc(N5CCOCC5)s4)C3)ccc2c1 (stereo not drawn)
    i	-0.29
Cc1ccccc1NC(=O)CN1C(=O)NC2(CCCCC2)C1=O
    i	-0.3
C=C(C)CNC(=S)NNC(=O)CCn1c2ccc(Cl)cc2c2cc(Cl)ccc21
    i	-0.03
Cc1ccc(-c2nc(CS(=O)(=O)CC(=O)N3CCCCCC3)c(C)o2)cc1
    i	-1.6
Cc1c(NC2(C#N)CCCC2)c(=O)n(-c2ccccc2)n1C
    i	1.4
O=[N+]([O-])c1cc([N+](=O)[O-])c(Oc2cc(F)ccc2F)cc1NN1CCCCC1
    i	-2.2
CCC(C(=O)NN1C(=O)c2ccccc2C1=O)c1ccccc1 (stereo not drawn)
    i	1.1
O=S(=O)(NCc1ccco1)c1cccc2cccnc12
    i	0.01
COC(=O)c1cnc(SCc2ccc(Cl)cc2)n1C
    i	-0.49
CCC(C)c1ccc(NC(=O)NCc2cccnc2)cc1 (stereo not drawn)
    i	0.88
O=C(N/N=C/c1ccccc1O)C1CC(=O)N(c2ccc(F)cc2)C1 (stereo not drawn)
    i	0.15
Cc1conc1NC(c1cccs1)c1ccc2cccnc2c1O (stereo not drawn)
    i	-1.4
CCS(=O)(=O)N1CCC(C(=O)c2ccc(Cl)cc2)CC1
    i	-0.08
CCOC(=O)c1ccc(S(=O)(=O)Nc2ccc3cn[nH]c3c2)cc1
    i	1.6
CCN1CCN(C(=O)CCc2nnc3ccc(N4CCN(c5cccc(OC)c5)CC4)nn23)CC1
    i	0.33
COc1ccc2oc(C(=O)Nc3nc(-c4ccccn4)cs3)c(C)c2c1
    i	-1
Fc1ccccc1N1CCN(c2ncnc3[nH]ncc23)CC1
    i	0.9
Cc1nn(CC(=O)O)c(C)c1N
    i	0.08
CC(NC(=O)COC(=O)CSCc1ccccc1)c1ccccc1 (stereo not drawn)
    i	-0.79
COc1ccc(CCn2c(=O)[nH]c3cc(C(=O)NCCN4CCOCC4)ccc3c2=O)cc1OC
    i	-0.91
Cc1cnc(=O)[nH]c1SCc1cccc([N+](=O)[O-])c1
    i	-0.71
CN(C(=O)c1cccc(Cl)c1)C1CCCN(Cc2ccccc2F)C1 (stereo not drawn)
    i	0.48
CCC(=O)NN1CCc2cc3ccc(C)cc3nc21
    i	-0.69
Cc1noc(C)c1S(=O)(=O)N(CC(=O)NC1CCC(C)CC1)c1ccc(C(C)C)cc1 (stereo not drawn)
    -7.1*	0.25*
CC1(c2ccccc2)NC(=O)N(CC(=O)Nc2ccccc2N2CCCCC2)C1=O (stereo not drawn)
    i	-0.65
COC(=O)c1ccc(CSc2cc(C)c3cccc(C)c3n2)o1
    i	1.7
Cc1cc(-c2csc(N)n2)c(C)n1C
    i	1.5
COc1ccc(N2CCN(C(=O)[C@H](Cc3c[nH]c4ccccc34)NC(C)=O)CC2)cc1
    i	1
CC1CC(NNC(=O)c2ccccc2)=Nc2ccccc2N1C (stereo not drawn)
    i	-0.01
Cc1cc(C(=O)NC(C)Cc2ccccc2)cc(C)c1[N+](=O)[O-] (stereo not drawn)
    i	1.6
C=CCN1C(=O)C(CC(=O)Nc2ccc(OC)cc2)N(Cc2ccco2)C1=S (stereo not drawn)
    i	0.06
Nc1nc(CN2CCN(c3ccccc3F)CC2)nc(N2CCCc3ccccc32)n1
    i	0.06
CC(NC(c1ccccc1)c1ccccc1)C(=O)N1CCCc2ccccc21 (stereo not drawn)
    i	-0.11
Cc1cccc2cc(CN(Cc3cccs3)S(=O)(=O)c3ccc4c(c3)OCCO4)c(=O)[nH]c12
    i	0.11
O=C(/C=C/c1ccc2c(c1)OCO2)c1ccco1
    i	2.7
CCN(CC)c1ccc(/C=C(/C#N)C(=O)NC(C)C)o1
    i	12
COc1ccccc1N1CCN(CCC(=O)Nc2ccc(F)cc2)CC1
    i	0.5
CCCNC(=O)c1cccc(Cn2nc(C)c(Br)c2C)c1
    i	1.7
O=C1c2cccc3c2[C@H](CCC3)CN1[C@@H]1CN2CCC1CC2
    i	1.2
O=C(CN1CCN(Cc2ccccc2F)C1=O)NCCN1CCOCC1
    i	2.6
CC(=O)N=Cc1c(C)c(C#N)c(=O)n(C)c1O
    i	1.1
COc1ccc(-c2[nH]ncc2/C=C(/C#N)C(=O)NC2CCCCCC2)cc1
    i	-0.29
CN(C)CCC(=O)c1ccc2c(c1)OCO2
    i	1.4
Cn1cnc2c1c(=O)n(Cc1c(Cl)cccc1Cl)c(=O)n2C
    i	0.12
O=C(CSc1ccc([N+](=O)[O-])cn1)Nc1cc(C(F)(F)F)ccc1N1CCOCC1
    i	0.07
CCCn1c(C(C)Nc2nc(-c3ccc(C)cc3)cs2)nc2ccccc21 (stereo not drawn)
    i	1.6
C=CCn1c(SCC(=O)c2ccc(Br)cc2)nnc1C(C)NC(=O)Cc1ccc(OC)cc1 (stereo not drawn)
    i	-1.9
S=c1[nH]nc(COc2ccccc2)n1/N=C/c1cccc(Cl)c1Cl
    i	0.43
CS(=O)(=O)N(CC(=O)NCc1ccc2c(c1)OCO2)c1ccc(Cl)cc1
    i	0.89
CC(C)NC(=O)c1cc(-c2ccc3c(c2)OCO3)on1
    i	0.12
Cc1ccc(NC(=O)COC(=O)c2cc(-c3cccs3)nn2-c2ccccc2)cc1[N+](=O)[O-]
    i	0.12
Cc1noc(C(=O)NCc2ccccc2)c1Cl
    i	0.8
COC(=O)c1cc(NC(=O)C23CCC(C)(C(=O)O2)C3(C)C)cc(C(=O)OC)c1 (stereo not drawn)
    i	-0.6
Cc1ccc(C(c2nnnn2Cc2ccccc2)N2CCN(Cc3ccccc3)CC2)cc1 (stereo not drawn)
    i	0.96
O=C(OCC(=O)N(C1CCCCC1)C1CCCCC1)c1ccncc1
    i	-0.59

# Complete entries, quoted from the list:
# Profile of COc1ccc(-c2[nH]ncc2/C=C(/C#N)C(=O)NC2CCCCCC2)cc1 : KCNQ2 block = i; KCNQ2 block baseline = -0.29
# Profile of O=C(CSc1ccc([N+](=O)[O-])cn1)Nc1cc(C(F)(F)F)ccc1N1CCOCC1 : KCNQ2 block = i; KCNQ2 block baseline = 0.07
# Profile of Cc1ccc(-c2nc(CS(=O)(=O)CC(=O)N3CCCCCC3)c(C)o2)cc1 : KCNQ2 block = i; KCNQ2 block baseline = -1.6

# (list continues)
# Order of results – KCNQ2 block	KCNQ2 block baseline
Cn1c(SCC(=O)N2CCN(S(=O)(=O)c3ccc(Cl)cc3)CC2)nc2ccccc21
    i	-0.75
O=C1[C@@H]2[C@@H]3C[C@@H]([C@H]4ON=C(c5ccc(OCc6ccccc6)cc5)[C@@H]34)[C@@H]2C(=O)N1c1ccc2c(c1)OCO2
    i	-0.04
Cc1c(CN2CCCCC2)c(O)n(CCCO)c(=O)c1C#N
    i	-0.02
COc1ccc(CNS(=O)(=O)c2ccc(OC)cc2)cc1
    i	-1.7
CCCc1[nH]nc2c1C(c1ccc(OCCN3CCOCC3)c(OC)c1)C(C#N)=C(N)O2 (stereo not drawn)
    i	-1.1
NC(=O)NC(=O)COC(=O)c1ccc(Cl)c(S(=O)(=O)N(Cc2ccccc2)c2ccc(Cl)cc2)c1
    i	1.4
Cc1nn(CC(=O)Nc2ccc(S(N)(=O)=O)cc2)c(=O)c2ccccc12
    i	0.25
COc1ccc(C(=O)Nc2cc3c4c(c2)CC(=O)N4CCC3)c(OC)c1
    i	0.31
O=C(COC(=O)c1ccc(Br)cc1)Nc1ccccc1Br
    i	-0.16
CCOC(=O)C(Cc1ccccc1)(Cc1ccccc1)C(C)=O
    -6.4*	-0.29*
COc1ccc(CCNC(=O)Cn2cnc3c(nnn3Cc3ccc(C)cc3)c2=O)cc1OC
    i	-0.13
COc1cccc(N2C(=O)c3ccncc3C2=O)c1
    i	-1.9
COc1cc(C(=O)O)c([N+](=O)[O-])c(OC)c1OC
    i	0.67
CCOc1ccc(S(=O)(=O)NCc2ccncc2)cc1
    i	-1.8
COc1ccc2c(C(=O)c3ccc(C)cc3)n(CCC(N)=O)[n+]([O-])c2c1
    i	0.92
CN(C)c1ccc(/C=N/NC(=O)c2ccccc2O)o1
    i	0.02
COC(=O)c1ccccc1NC(=O)N1CCN(c2ccccc2F)CC1
    i	-1.5
CCc1cn(S(=O)(=O)c2ccccc2OC)nc1N
    i	0.69
CN1CCN(NC(=O)c2ccccc2F)CC1
    i	3.2
Cc1nnc(SCC(=O)NNC(=O)c2ccc(Cl)cc2)s1
    i	-0.48
COc1ccc(C(=O)OCC(=O)NCC2CCCO2)cc1 (stereo not drawn)
    i	1.6
CCOc1ccc(NC(=O)Cn2c(=O)oc3ccccc32)cc1
    i	-0.26
O=C(C1=C[C@H](c2csc3ccccc23)C[C@H](OCCCCO)O1)N1CCN(Cc2ccccc2)CC1
    i	1
O=Cc1ccc(OCc2nnc(-c3ccccc3Br)o2)cc1
    i	0.05
CCCN(CCC)CCCNC(=O)C1c2cc(OC)c(OC)cc2C(=O)N(C)C1c1cccs1 (stereo not drawn)
    i	-0.37
Cc1ccc2c(c1)c(C)cc(=O)n2CCC(=O)O
    i	2.1
O=C1CCC(C(=O)N2CCOCC2)CN1Cc1ccc(Cl)cc1 (stereo not drawn)
    i	1.7
CCCC(=O)N1CCc2[nH]c3ccccc3c2C1
    i	-2.7
Cc1ccc(Sc2cc(NCCCO)c([N+](=O)[O-])c3nonc23)cc1
    i	-1.4
Cc1cc(OC(=O)c2ccccc2Cl)cc(=O)n1C
    i	0.42
O=[N+]([O-])c1cccc(C2=NC(c3ccccc3)CO2)c1 (stereo not drawn)
    i	1.2
COc1ccccc1N1C(=O)C2C(c3ccc(F)cc3)NN(C(=O)c3ccc(C)cc3)C2C1=O (stereo not drawn)
    i	-0.06
Cc1ccc(CN2CCN(C(=O)CCc3ccccc3)CC2)cc1
    i	3.3
CC1CC(C)CN(C(=O)COC(=O)Cc2ccc(Br)cc2)C1 (stereo not drawn)
    i	-1.6
CCCCn1c(=O)[nH]c(=O)c2c1nc(-c1ccsc1)n2Cc1ccccc1
    i	0.4
COc1ccc(CCNC(=S)Nc2ccc(S(=O)(=O)Nc3ncccn3)cc2)cc1OC
    i	2
CCOc1cc(C(=O)NCCCn2ccnc2)cc(OCC)c1OCC
    i	0.31
O=C(NCc1ccccc1)C1(C(F)(F)F)CC(CCCO)CCCO1 (stereo not drawn)
    i	0.21
Cn1ccnc1SCC(=O)Nc1nc2ccccc2s1
    i	1.8
CCCNC(=O)c1ccc2c(c1)C1C3CCC(C3)C1C(c1ccccc1)N2 (stereo not drawn)
    i	0.21

# Gathered by group: the entries above with bromine (6)
# Order of results – KCNQ2 block	KCNQ2 block baseline
C[n+]1ccc(/C=C/c2ccc(Br)cc2)cc1
    i	4.8
CCCNC(=O)c1cccc(Cn2nc(C)c(Br)c2C)c1
    i	1.7
C=CCn1c(SCC(=O)c2ccc(Br)cc2)nnc1C(C)NC(=O)Cc1ccc(OC)cc1 (stereo not drawn)
    i	-1.9
O=C(COC(=O)c1ccc(Br)cc1)Nc1ccccc1Br
    i	-0.16
O=Cc1ccc(OCc2nnc(-c3ccccc3Br)o2)cc1
    i	0.05
CC1CC(C)CN(C(=O)COC(=O)Cc2ccc(Br)cc2)C1 (stereo not drawn)
    i	-1.6

# The listing continues:
# Order of results – KCNQ2 block	KCNQ2 block baseline
CCOc1ccc(-c2nc(C#N)c(N3CCCCCC3)o2)cc1
    i	1.6
CCCC1=C(C(=O)OCC)C(c2ccc(OC)c(CSc3ccccn3)c2)C(C#N)=C(N)O1 (stereo not drawn)
    i	2
CC(SCc1ccccc1)C(=O)N/N=C/c1ccc(OCC(=O)NCc2ccco2)cc1 (stereo not drawn)
    i	-0.52
COc1ccc(-c2cnnn2-c2ccc(NC(=O)c3ccco3)cc2)cc1OC
    i	-0.39
N#C/C(=C\c1ccc(N2CCCCC2)c([N+](=O)[O-])c1)c1nn(-c2ccccc2)c(N)c1C#N
    i	0.7
CCOC(=O)C/C(C)=N/NC(=O)COc1ccccc1C
    i	-0.12
COc1ccc(-c2nc(NC(=O)c3[nH]c(C)c(C(C)=O)c3C)sc2C)cc1
    -6.5*	-1.6*
Cc1onc(-c2ccccc2)c1C(=O)N/N=C/C(Br)=C/c1ccccc1
    i	-0.35
OC(COc1cccc2ccccc12)CN1CCN(c2ccc(Cl)cc2)CC1 (stereo not drawn)
    i	-0.02
O=C(CN(Cc1ccccc1Cl)C(=O)c1ccc(CN2CCOCC2)o1)NCC1CCCO1 (stereo not drawn)
    i	0.29
CC(Oc1cccc(Cl)c1)C(=O)Nc1ccccc1N1CCCCC1 (stereo not drawn)
    -7.1*	0.5*
CCCCOC(=O)CSc1nc2ccccc2o1
    i	1.4
Cc1ccc(C(=O)NC(=S)NCc2ccco2)cc1
    i	1.8
Cc1ccc(C2CC(=O)C=C(NCc3ccccc3)C2)cc1 (stereo not drawn)
    i	-0.87
COc1ccc(C2C(C(=O)c3cccs3)=C(O)C(=O)N2c2cccc(C)n2)cc1 (stereo not drawn)
    i	1.7
COc1ccc(Nc2cc(C(=O)NCc3ccccn3)c3ccccc3n2)c(OC)c1
    i	0.18
CC(C)CNC(=S)Nc1ccc(F)cc1
    i	-1.2
